Yeast UUG start: yeast start codon fidelity modulation. S. cerevisiae UUG-firefly luciferase reporter, luminescence/redox ratio. activity score, % at 18.7 µM. 0.13% of 350,000 active;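 active = replicate mean at a twofold rise or more, about +100% in these data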;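 note: firefly luciferase made from a UUG start codon reports start codon fidelity; reporter light over untreated wells divided by growth signal over untreated wells; some hits fall short of that in this replicate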
MT1-MMP act inh: inhibitors of human MT1-MMP activation; P50281; HT1080 RFP-PRO-GFP cells, GFP/RFP ratio fluorescence, overnight; percent of plate control window, DMSO zero; GFP/RFP ratio change, % at 20 µM; 0.061% of 360,000 active; AID 651647;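 active = GFP/RFP ratio change of at least 30% with cell ATP level not reduced by more than half and red fluorescence within 50% of control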; note: strong numbers were not always called active
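Read-out: GFP/RFP fluorescence ratio; Test system: RFP-PRO-GFP reporter HT1080 cells; Compound dosing: single-point 20 µM compound, 1% DMSO; Times: overnight compound exposure at 37 °C.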
MT1-MMP act inh RFP: second read-out of MT1-MMP act inh, no call of its own (marks repeat the call); RFP signal change, %; measured here: RFP expression control read;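 0 = vehicle wells; hits needed this value within 50% of zero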
Starred values were filed as active, the others as inactive; & = joins results of further samples. Some of the compounds tested, so the mix of outcomes need not match the whole.

SMILES	Yeast UUG start	MT1-MMP act inh	MT1-MMP act inh RFP
O=C1C(=NO)CCCc2ccccc21	-14	4	0
Cc1ccc(C(=O)OCC(=O)NC2CCCC(C)C2C)cc1S(=O)(=O)N1CCCCC1 (stereo not given)	-10	-3	-14
CC(OC(=O)c1c[nH]c2ccccc12)C(=O)N1CCCC1 (stereo not given)	-11	-1	-2
O=C(Nc1ccccc1N1CCCC1)C1=COCCO1	0	-4	6
c1coc(C2=NC(c3ccco3)C(c3ccco3)N2)c1 (stereo not given)	14	0	6
CCN(C(=O)COC(=O)/C=C/c1ccc(OC)c(OC)c1)c1c(N)n(Cc2ccccc2)c(=O)[nH]c1=O	-16	4	1
CN(C)C(CNC(=O)CCNC(=O)c1ccccc1Cl)c1ccco1 (stereo not given)	-13	-4	1
O=C(NNC(=O)c1ccc2ccccc2c1)c1cccc(Br)c1	-10	8	-3
COCCN(C(=O)c1cc(CN2C(=O)c3ccccc3C2=O)ccc1OC)c1c(N)n(CC(C)C)c(=O)[nH]c1=O	17	-5	1
O=C(CNc1ccc(C(F)(F)F)cc1)Nc1cccc(S(=O)(=O)N2CCCC2)c1	17	9	-10
CC(C)n1c(SCC(=O)Nc2nc3ccccc3s2)nc2c1c(=O)n(C)c(=O)n2C	3	23	-12
Cn1c(SCC(=O)N2CC(=O)Nc3ccccc32)nc2ccccc2c1=O	10	-3	0
CN(c1ccccc1)S(=O)(=O)c1cccc(NC(=O)CN2C(=O)NC3(CCCCC3)C2=O)c1	-15	5	-2
Cc1ccc(NC(=O)c2cc(S(=O)(=O)N3CCOCC3)ccc2Cl)cc1S(=O)(=O)N1CCOCC1	-12	1	0
CCN(C(=O)COC(=O)c1ccc(O)cc1O)c1c(N)n(Cc2ccccc2)c(=O)[nH]c1=O	-8	-3	3
Cc1ccc(C(=O)OCC(=O)NC2CC2)cc1S(=O)(=O)N1CCOCC1	0	6	2
CCCCn1c(N)c(N(CCC(C)C)C(=O)CSc2nc3ccccc3n2C)c(=O)[nH]c1=O	-11	-7	1
C=C1c2cccc(OC)c2O[C@H](C(=O)OCC)[C@@H]1CCCCCC	-3	0	2
CCN(CC)c1nc(NNC(=O)c2ccccc2)nc(N(CC)CC)n1	-22	-1	-6
CCOc1ccc(CCNC(=O)COC(=O)COc2ccc(C#N)cc2)cc1OCC	10	2	4
Cc1nc2ccc(NC(=O)c3ccc(C)c(S(=O)(=O)N4CCOCC4)c3)cc2s1	5	7	-10
O=C(CNC(=O)C12CC3CC(CC(C3)C1)C2)OCc1ccc(F)cc1Cl	9	3	4
COc1ccccc1NC(=O)N(C)C[C@@H]1OCc2cnnn2CCCC(=O)N([C@H](C)CO)C[C@H]1C	-21&4	0	3
N#Cc1ccc(Cl)cc1NC(=O)CNc1cccc(S(=O)(=O)N2CCCC2)c1	-2	3	-1
CCCCCC1C(=O)CCC1CC(=O)OC (stereo not given)	2	-1	0

(more compounds)
SMILES	Yeast UUG start	MT1-MMP act inh	MT1-MMP act inh RFP
CCCC(=O)N1CCC1(C)C(=O)Nc1scc(C)c1C#N (stereo not given)	-38	0	-3
CC(c1ccccc1)N(C)C(=O)CSc1nnc(C2CC2)n1C1CC1 (stereo not given)	-5	1	3
COc1cc(C(=O)N2Cc3cc4ccccc4nc3C2C)cc(OC)c1OC (stereo not given)	12	2	-2
C[C@@H]1CN([C@H](C)CO)C(=O)CCCn2nncc2CO[C@@H]1CN(C)C(=O)c1ccncc1	-4&-10	-3	3
CC(=O)Nc1cccc(C(=O)OCC(=O)N2CCN(C(=O)COC(=O)c3cccc(NC(C)=O)c3)CC2)c1	-14	0	2
CCNC(=O)C1CCCN(C(=O)c2ccc(OC(F)F)cc2)CC1 (stereo not given)	-14	2	0
CC(=O)c1sc(NC(=O)c2ccc(F)c(S(=O)(=O)N3CCOCC3)c2)nc1C	-9	5	-2
Cc1ccc(S(=O)(=O)N2CCN(C(=O)COC(=O)COc3ccccc3C(C)C)CC2)c(C)c1	-24	-7	-3
COCCN(C(=O)COC(=O)C(C)(C)Oc1ccc(Cl)cc1)c1c(N)n(Cc2ccccc2)c(=O)[nH]c1=O	-19	-5	0
CN(Cc1ccc(Cl)c(Cl)c1)C(=O)c1cccc(S(=O)(=O)N2CCN(Cc3ccccc3)CC2)c1	21	2	-26
COC(=O)c1ccc2c(c1C(=O)OC)CN(S(=O)(=O)C(C)(C)C)[C@H]2CCO	-13	-1	3
COc1ccc(NS(=O)(=O)c2c(F)cccc2F)cc1S(=O)(=O)N1CCOCC1	-19	1	5
CC(C)(C)S(=O)N1Cc2cc(C(=O)N3CCOCC3)nc(-c3cccc(Br)c3)c2[C@H]1CCO (stereo not given in full)	1	-1	6
O=C(COC(=O)COc1ccccc1F)Nc1ccc2c(c1)OCO2	-9	1	3
CCOC(=O)c1cc2c(=O)n3cccc(C)c3nc2n(Cc2ccco2)c1=NC(=O)c1ccc(C)cc1	-18	3	8
CN(C)C(CNC(=O)c1cc(S(=O)(=O)N2CCOCC2)ccc1Cl)c1cccs1 (stereo not given)	-5	-3	-1
CN(CC(=O)Nc1ccc(F)c(F)c1F)C(=O)C1CSC2(C)CCC(=O)N12 (stereo not given)	1	-1	1
CC1C(=O)OC2C1CCC1(C)C3(C)C(=O)C=CC213 (stereo not given)	-3	-73	-5
CSc1ccc(C(O)c2ncc(-c3cccc(F)c3)[nH]2)cc1 (stereo not given)	-9	1	-5
CCCCN(C(=O)COC(=O)c1nc2nccc(C)n2n1)C1CCS(=O)(=O)C1 (stereo not given)	-9	-3	3
CSc1ccccc1NC(=O)CN(C)C(=O)c1c(C)nn(Cc2ccccc2)c1C	-4	0	-2
O=C(NCCCN1CCCC1=O)c1cc(S(=O)(=O)N2CCN(c3ccccc3)CC2)ccc1Cl	-4	-3	-5
Cc1ccc(NC(=O)C(C)OC(=O)COc2cccc(C(F)(F)F)c2)cc1S(=O)(=O)N1CCOCC1 (stereo not given)	5	0	4
CCN(c1ccccc1)S(=O)(=O)c1cccc(C(=O)OCC(=O)c2c(N)n(C)c(=O)n(C)c2=O)c1	-5	3	-8
O=C(NCc1ccncc1)c1cccc(S(=O)(=O)N2CCc3ccccc32)c1	-26	-7	-18

Later entries
SMILES	Yeast UUG start	MT1-MMP act inh	MT1-MMP act inh RFP
CCCOc1ccccc1OCC(=O)N1CCN(S(=O)(=O)c2ccc(Cl)cc2)CC1	-3	-1	-5
Cc1c(-c2ccc(OCCN3CCOCC3)cc2)c(=O)oc2ccc3ccccc3c12	-11	0	1
COc1ccccc1NS(=O)(=O)c1ccc(NC(=O)c2ccccn2)cc1	-9	8	-12
COc1ccc(CN(C)CC(=O)Nc2ccccc2C(=O)NC2CC2)cc1OC	-20	0	2
Cc1ccc(NC(=O)CN(C)C(=O)c2cccc(S(=O)(=O)NCc3ccco3)c2)cc1	-6	-1	2
Cc1c2c(cc3c1[nH]c1ccccc13)C=NCC2	-10	-16	-1
COc1ccc(S(=O)(=O)N2CCOCC2)cc1NC(=O)c1ccc(S(=O)(=O)N2CCCCC2)cc1	-4	2	-1
CN(Cc1nc2ccccc2c(=O)[nH]1)C(=O)c1cccc(S(=O)(=O)N2CCCCCC2)c1	-11	1	-6
NS(=O)(=O)c1ccc(NC(=O)COC(=O)CN2C(=O)C3CC=CCC3C2=O)cc1 (stereo not given)	-1	-5	0
CCN(c1ccccc1)S(=O)(=O)c1cc(C(=O)NCC(c2ccc(OC)cc2)N(C)C)ccc1C (stereo not given)	11	-7	-10
CCOC(=O)C1=C[C@@H](C(C)(C)C)N(S(=O)(=O)c2ccc(C)cc2)[C@H]1c1ccc(C#N)cc1	-13	-2	-19
Cc1onc(-c2ccccc2)c1C(=O)N1CCC(C)(C(=O)O)C1 (stereo not given)	-12	-1	4
COc1ccc(-c2noc(CCC(=O)N3CCC(c4cc(C)ccc4C)CC3)n2)cc1	-10	1	1
Cc1ccc(C(=O)OCC(=O)Nc2ccc(F)c(Cl)c2)o1	-33	1	2
COc1ccc2sc(-c3ccccc3OC)c(C#Cc3cncn3C)c2c1	-10	-9	-5
CCOc1ccccc1N1CCN(C(=O)C2CSC3(C)CCC(=O)N23)CC1 (stereo not given)	-23	4	2
CCc1cccc2c(C(=O)CN3C(=O)NC4(CCCCCC4)C3=O)c[nH]c12	4	8	10
CC1=C(C(=O)N(C(C)C)C(C)C)CC(CC(=O)NC2CCCC2)C(=O)N1CCC1=CCCCC1 (stereo not given)	-2	-1	0
Cc1cn([C@H]2C[C@H](O)[C@@H](/C=C/C(=O)NCCC(c3ccccc3)c3ccccc3)O2)c(=O)[nH]c1=O	-12	2	2
CCCCN(C)c1c(C)nc2ccc(C(=O)NCCOc3ccc(OC)cc3)cn12	-16	-10	-23
O=C(N[C@H]1C/C=C\C[C@H](CC(=O)N(CCO)Cc2ccccc2)C(=O)N[C@@H](c2ccccc2)COC1=O)OCC1c2ccccc2-c2ccccc21	-17	2	-3
O=[N+]([O-])c1ccc(NN=C2CCCCC2)c([N+](=O)[O-])c1	-1	4	0
Cc1nn(CC(=O)NC2CCS(=O)(=O)C2)c(C)c1S(=O)(=O)N(C)C (stereo not given)	2	3	3

Single records (already shown):
Entry for `COc1ccc2sc(-c3ccccc3OC)c(C#Cc3cncn3C)c2c1` = Yeast UUG start = -10; MT1-MMP act inh = -9; MT1-MMP act inh RFP = -5
Entry for `CCc1cccc2c(C(=O)CN3C(=O)NC4(CCCCCC4)C3=O)c[nH]c12` = Yeast UUG start = 4; MT1-MMP act inh = 8; MT1-MMP act inh RFP = 10

A run of entries from further up, for reference:
SMILES	Yeast UUG start	MT1-MMP act inh	MT1-MMP act inh RFP
O=C(NCCCN1CCCC1=O)c1cc(S(=O)(=O)N2CCN(c3ccccc3)CC2)ccc1Cl	-4	-3	-5
Cc1ccc(NC(=O)C(C)OC(=O)COc2cccc(C(F)(F)F)c2)cc1S(=O)(=O)N1CCOCC1 (stereo not given)	5	0	4
CCN(c1ccccc1)S(=O)(=O)c1cccc(C(=O)OCC(=O)c2c(N)n(C)c(=O)n(C)c2=O)c1	-5	3	-8
O=C(NCc1ccncc1)c1cccc(S(=O)(=O)N2CCc3ccccc32)c1	-26	-7	-18
CCCOc1ccccc1OCC(=O)N1CCN(S(=O)(=O)c2ccc(Cl)cc2)CC1	-3	-1	-5
Cc1c(-c2ccc(OCCN3CCOCC3)cc2)c(=O)oc2ccc3ccccc3c12	-11	0	1
COc1ccccc1NS(=O)(=O)c1ccc(NC(=O)c2ccccn2)cc1	-9	8	-12
COc1ccc(CN(C)CC(=O)Nc2ccccc2C(=O)NC2CC2)cc1OC	-20	0	2
Cc1ccc(NC(=O)CN(C)C(=O)c2cccc(S(=O)(=O)NCc3ccco3)c2)cc1	-6	-1	2
Cc1c2c(cc3c1[nH]c1ccccc13)C=NCC2	-10	-16	-1
COc1ccc(S(=O)(=O)N2CCOCC2)cc1NC(=O)c1ccc(S(=O)(=O)N2CCCCC2)cc1	-4	2	-1
CN(Cc1nc2ccccc2c(=O)[nH]1)C(=O)c1cccc(S(=O)(=O)N2CCCCCC2)c1	-11	1	-6
NS(=O)(=O)c1ccc(NC(=O)COC(=O)CN2C(=O)C3CC=CCC3C2=O)cc1 (stereo not given)	-1	-5	0
CCN(c1ccccc1)S(=O)(=O)c1cc(C(=O)NCC(c2ccc(OC)cc2)N(C)C)ccc1C (stereo not given)	11	-7	-10
CCOC(=O)C1=C[C@@H](C(C)(C)C)N(S(=O)(=O)c2ccc(C)cc2)[C@H]1c1ccc(C#N)cc1	-13	-2	-19
Cc1onc(-c2ccccc2)c1C(=O)N1CCC(C)(C(=O)O)C1 (stereo not given)	-12	-1	4
COc1ccc(-c2noc(CCC(=O)N3CCC(c4cc(C)ccc4C)CC3)n2)cc1	-10	1	1
Cc1ccc(C(=O)OCC(=O)Nc2ccc(F)c(Cl)c2)o1	-33	1	2
COc1ccc2sc(-c3ccccc3OC)c(C#Cc3cncn3C)c2c1	-10	-9	-5
CCOc1ccccc1N1CCN(C(=O)C2CSC3(C)CCC(=O)N23)CC1 (stereo not given)	-23	4	2
CCc1cccc2c(C(=O)CN3C(=O)NC4(CCCCCC4)C3=O)c[nH]c12	4	8	10
CC1=C(C(=O)N(C(C)C)C(C)C)CC(CC(=O)NC2CCCC2)C(=O)N1CCC1=CCCCC1 (stereo not given)	-2	-1	0
Cc1cn([C@H]2C[C@H](O)[C@@H](/C=C/C(=O)NCCC(c3ccccc3)c3ccccc3)O2)c(=O)[nH]c1=O	-12	2	2
CCCCN(C)c1c(C)nc2ccc(C(=O)NCCOc3ccc(OC)cc3)cn12	-16	-10	-23
